Source: PubChem
UCH37 DUB inh = blocks the human deubiquitinase UCH37 | purified proteasome/UCH37, Ub-AMC cleavage fluorescence | AID 588478 | 330,000 compounds, 0.33% hits | inhibition, % (no concentration beside the values);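 active = mean of two replicates above 20%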;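 note: 0% = compound-free wells with enzyme and 100% = wells lacking proteasome; stock transfer was 100 nL into about 20 µL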
Target sequence (Q9Y5K5 whole entry, looked up): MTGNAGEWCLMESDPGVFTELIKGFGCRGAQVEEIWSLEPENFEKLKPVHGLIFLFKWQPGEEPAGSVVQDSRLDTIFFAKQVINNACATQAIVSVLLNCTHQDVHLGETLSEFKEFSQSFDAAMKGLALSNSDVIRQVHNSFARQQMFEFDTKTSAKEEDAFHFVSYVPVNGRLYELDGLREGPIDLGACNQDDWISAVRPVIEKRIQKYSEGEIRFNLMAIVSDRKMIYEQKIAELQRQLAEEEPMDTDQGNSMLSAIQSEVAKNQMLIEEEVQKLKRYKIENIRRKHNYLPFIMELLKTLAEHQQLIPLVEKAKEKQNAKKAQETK
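Material: Human UCH37 enzyme supplied as purified proteasome complex | Schedule: 30 min preincubation with enzyme, 25 min cleavage at room temperature | Detection: AMC fluorescence 355/460 nm | Measure: % inhibition of Ub-AMC cleavage fluorescence | Controls: Wells without proteasome as full block, compound-free enzyme plus substrate as uninhibited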
Ecoli rRNA inh = selective bacterial rRNA inhibition in E. coli; E. coli WT GFP vs humanized-ribosome RFP mutants, fluorescence, 24 h; hits give low values; DMSO median 0, no signal -100; GFP signal change (wild-type ribosome), % (no concentration beside the values); 350,000 compounds, 1.6% hits;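 active = significant combined selectivity score with lowered wild-type GFP, culture density cut under 30%, mutant RFP and density less affected; inactive = any of these conditions unmet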; note: one replicate is shown; some compounds called inactive have numbers as strong as hits
MLL AF4-AF9 inh = inhibitors of human MLL-AF4/AF9 interaction; P42568; AlphaScreen, biotin-AF4 peptide binding to FLAG-AF9; inhibition, % at 10 µM; 350,000 compounds, 0.47% hits; AID 651704;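 active = every replicate reaching a set inhibition limit, whatever the replicate mean, cut at about 25% in these data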;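 note: 0% = plate neutral control median and 100% = total signal loss; the record names both 10 and 1 µM as test concentration; the first replicate is given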
Target sequence (P42568 whole entry, looked up): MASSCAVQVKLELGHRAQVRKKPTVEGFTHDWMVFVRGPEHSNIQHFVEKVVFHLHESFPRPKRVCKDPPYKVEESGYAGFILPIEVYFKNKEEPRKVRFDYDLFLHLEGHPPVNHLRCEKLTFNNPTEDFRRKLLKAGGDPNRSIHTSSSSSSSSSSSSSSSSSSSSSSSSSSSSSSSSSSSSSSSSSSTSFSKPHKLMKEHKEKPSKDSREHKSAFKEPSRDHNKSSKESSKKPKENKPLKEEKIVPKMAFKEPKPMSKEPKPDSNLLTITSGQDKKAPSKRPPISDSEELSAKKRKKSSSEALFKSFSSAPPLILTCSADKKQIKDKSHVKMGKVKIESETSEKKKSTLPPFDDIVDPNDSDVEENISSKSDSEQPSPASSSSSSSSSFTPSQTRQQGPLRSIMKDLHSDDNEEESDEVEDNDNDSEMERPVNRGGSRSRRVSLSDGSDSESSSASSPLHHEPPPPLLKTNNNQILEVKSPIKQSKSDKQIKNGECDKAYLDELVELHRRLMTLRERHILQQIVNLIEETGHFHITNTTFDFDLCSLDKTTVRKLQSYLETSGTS
A1 inh = inhibitors of the anti-apoptotic protein A1, read as caspase activation; MEF A1-2A-BIM cells, Caspase-Glo 3/7 luminescence, 3 h; percent of clofoctol response, vehicle zero; caspase activation, % (concentration not given with the values); 330,000 compounds, 0.066% hits; AID 2462;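 active = over half of replicate activation scores above 10%, or exactly half above 10 with the replicate mean above 10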;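 note: wells of about 30 µL received 50 nL stock; many hits fall short of the cut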
Beta cell apopt = blocks beta cell apoptosis | 300,000 compounds, 0.8% hits | AID 435005 | protection from apoptosis, % (concentration not given with the values) | INS-1E cytokine-induced death, ATP luminescence, 48 h; percent of positive-control rescue, neutral wells zero;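 active = all replicates at 75% or more, or half of them and the mean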;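 note: 0% = cytokine-treated negative control wells and 100% = positive control rescue; higher means more ATP so stronger rescue from cytokine killing; wells of about 40 µL received 100 nL stock; the first replicate is given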
FGF22 binding = binders of recombinant human FGF22 by thermal shift; Q9HCT0; SYPRO orange fluorescence; percent of sucrose octasulfate shift, DMSO zero; calls only at 9.99 µM; 340,000 compounds, 1.5% hits; AID 651658;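 active = melting point raised past a set limit in the mean and every replicate; three in four hits are not shown here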
Target sequence (Q9HCT0 whole entry, looked up): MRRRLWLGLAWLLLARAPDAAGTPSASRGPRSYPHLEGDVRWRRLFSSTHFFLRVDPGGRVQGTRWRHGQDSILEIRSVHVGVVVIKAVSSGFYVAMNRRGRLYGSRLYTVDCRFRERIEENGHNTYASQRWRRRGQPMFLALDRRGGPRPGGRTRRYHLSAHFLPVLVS
E coli growth = inhibitors of Escherichia coli growth; OD600, 23 h; hits give low values; AID 1053175; OD600 absorbance (no concentration beside the values); 330,000 compounds, 0.21% hits;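 active = OD600 absorbance below the run mean of sample wells minus 3.6 SD, in any replicate, cut at about 0.56 in these data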;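 note: stock transfer was 300 nL into about 60 µL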
T cruzi inh = blocks replication of Trypanosoma cruzi | T. cruzi beta-gal in NIH3T3, luminescence, 90 h | inhibition, % (test concentration not listed) | 300,000 compounds, 1.4% hits;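 active = mean inhibition across valid replicates above about 55%, limit read from the data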;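 note: signal also drops with host cell toxicity which is not excluded here; 0% = plate median of DMSO wells and 100% = zero luminescence signal; higher percent means less beta-gal luminescence so fewer parasites; stock transfer was 50 nL into about 50 µL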
Ecoli rRNA inh OD600 = also measured in Ecoli rRNA inh; calls as there; OD600 change, %; measured here: OD600 growth;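 optical density of the mix in the first replicate; 0 = DMSO median and -100 = no signal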
Ecoli rRNA inh RFP = further read-out of Ecoli rRNA inh, marked with its call; RFP signal change, %; measured here: RFP humanized mutant strains;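 first replicate; 0 = DMSO median and -100 = no signal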
* hit, by the source's call; i = inactive; · = not tested or not shown. Not all compounds are listed, so the mix of outcomes need not match the whole.

SMILES | UCH37 DUB inh | Ecoli rRNA inh | Ecoli rRNA inh OD600 | Ecoli rRNA inh RFP | MLL AF4-AF9 inh | A1 inh | Beta cell apopt | FGF22 binding | E coli growth | T cruzi inh
O=C(O)c1cn(-c2ccc(F)cc2)c2cc(Cl)c(F)cc2c1=O | 2.8 | -41 | -72 | -9.1 | -3.7 | 0.4 | 5 | i | 0.066* | -2
COc1ccc(CCCC(=O)Nc2ccccc2F)cc1 | 3.0 | 1 | 5 | -4.0 | -19 | -2.4 | 10 | i | 0.71 | -28
O=C(Cn1nnc2ccccc21)c1cccc([N+](=O)[O-])c1 | 3.5 | · | · | · | 4.5 | -0.5 | 0 | i | 0.67 | -13
CCCC(=O)n1nc(-c2cccnc2)nc1NCc1cccs1 | -2.0 | 10 | 21 | 4.4 | 0.4 | · | · | i | 0.73 | 4
Cc1c(NS(=O)(=O)c2ccc(N)cc2)c(=O)n(-c2ccccc2)n1C | -1.0 | 1 | 13 | -1.5 | -8.9 | 0.7 | 3 | · | 0.65 | 0
COc1ccccc1C(=O)OC1CCCN(C)C1 (centres undefined) | 0.2 | 16 | 17 | 2.3 | 0.1 | 0.4 | -6 | i | 0.66 | -9
Cc1cc(C)c(C(=O)Nc2ccc(Br)c(C(F)(F)F)c2)c(C)c1 | 6.4 | · | · | · | · | 0.3 | 7 | · | 0.64 | 23
COc1nc(-c2ccccc2)c2cc(C)ccc2n1 | -165 | 4 | 3 | -1.2 | 2.6 | 0.9 | 9 | i | 0.66 | -4
O=C(c1ccco1)N1CCN(C(=O)C2CC(c3ccc(Cl)cc3)=NO2)CC1 (centres undefined) | 5.0 | · | · | · | · | -0.6 | 7 | · | 0.73 | 8
COc1ccc2c(c1)[C@H]1[C@H](CO2)[C@H](c2ccccc2)[C@]2(C)C(=O)Nc3ccc(C)cc3C(=O)N12 | · | 1 | 9 | 7.9 | 1.4 | 1.3 | 12 | i | · | ·
c1ccc(Cn2c(Nn3cnnc3)nc3ccccc32)cc1 | -0.6 | · | · | · | · | 0.4 | · | · | 0.76 | -17
N#CC(C(=O)OC1CCCCC1)c1nc2ccccc2nc1N1CCOCC1 (centres undefined) | -11 | · | · | · | · | -0.1 | 6 | · | 0.66 | 46
Cc1cc(OCC(=O)NNC(=S)NCC2CCCO2)cc(C)c1Cl (centres undefined) | 2.7 | -2 | -31 | -3.5 | -1.0 | 1.1 | 1 | i | 0.68 | 3
Cc1ccccc1NC(=O)c1cccc(C(=O)Nc2ccccc2C)n1 | -33 | 7 | 14 | 1.5 | 0.4 | -0.3 | -2 | i | 0.7 | 7
CCN1CCCC1CN(Cc1cc2cc(C)ccc2[nH]c1=O)C(=O)Nc1ccccc1OC (centres undefined) | 0.0 | · | · | · | · | -0.4 | -2 | · | 0.72 | 23
NC(=O)c1ccccc1NS(=O)(=O)c1ccc(F)cc1 | · | 1 | -7 | -6.8 | -1.5 | 0.8 | 0 | i | · | -15
Cc1cccnc1NC1CCCCC1 | -0.1 | 12 | 15 | -2.2 | -2.0 | -0.2 | -5 | i | 0.67 | -14
Cn1c(=O)n(C)c2cc(S(=O)(=O)N3CCOCC3)ccc21 | 2.6 | · | · | · | · | -1.0 | -12 | · | 0.67 | 3
Cc1ccc(C)c(/C=C2\CCn3c2nc2cc(C(=O)O)ccc2c3=O)c1 | -26 | 6 | -4 | -1.1 | 2.8 | -0.2 | 0 | i | 0.64 | 1
Cc1cc2c(cc1C)N(C(=O)CN1C(=O)c3ccccc3C1=O)C(C)(C)c1ssc(=S)c1-2 | 2.9 | · | · | · | · | -0.9 | 2 | · | 0.76 | 6

2 of the compounds above, in CSV form:
structure,UCH37 DUB inh,Ecoli rRNA inh,Ecoli rRNA inh OD600,Ecoli rRNA inh RFP,MLL AF4-AF9 inh,A1 inh,Beta cell apopt,FGF22 binding,E coli growth,T cruzi inh
COc1ccccc1C(=O)OC1CCCN(C)C1 (centres undefined),0.2,16,17,2.3,0.1,0.4,-6,i,0.66,-9
CCCC(=O)n1nc(-c2cccnc2)nc1NCc1cccs1,-2.0,10,21,4.4,0.4,·,·,i,0.73,4

New compounds follow:
SMILES | UCH37 DUB inh | Ecoli rRNA inh | Ecoli rRNA inh OD600 | Ecoli rRNA inh RFP | MLL AF4-AF9 inh | A1 inh | Beta cell apopt | FGF22 binding | E coli growth | T cruzi inh
Cn1c(=O)oc2cc(S(=O)(=O)NC3CCCCC3)ccc21 | 0.5 | -24 | -35 | -8.6 | 0.0 | -0.6 | · | i | 0.66 | -5
N/C(=N\OC(=O)c1ccco1)c1cccc([N+](=O)[O-])c1 | · | 7 | 2 | -1.2 | 3.2 | -1.3 | -1 | i | · | -12
O=[N+]([O-])c1cccc(NC(=S)Nc2nc(-c3ccc(Cl)cc3Cl)cs2)c1 | · | 2 | 4 | 0.6 | -3.9 | 0.6 | 46 | i | · | 29
CN1N=C(C(=O)N2CCc3c([nH]c4ccccc34)C2c2c(F)cccc2Cl)CCC1=O (centres undefined) | 1.0 | -22 | -21 | 1.2 | 6.4 | 0.0 | 9 | i | 0.68 | -4
O=C(NCc1ccc(F)cc1)c1cnccn1 | 7.3 | 3 | 6 | -0.5 | 2.1 | 1.3 | -2 | i | 0.69 | -3
Cc1cccc(NC(=O)c2ccc(S(=O)(=O)N3CCCCC3)cc2)n1 | 4.8 | -6 | -3 | 8.3 | -384 | -2.4 | -2 | i | 0.71 | -7
CCC(Sc1ccccc1C(=O)O)C(=O)O (centres undefined) | 1.8 | · | · | · | · | -0.5 | -6 | · | 0.71 | -7
CCN(C(=O)CSc1nnc(NC2CCCCC2)s1)C1CCS(=O)(=O)C1 (centres undefined) | 2.0 | · | · | · | · | 1.8 | 3 | · | 0.7 | -6
COc1ccc(C(=O)N2CCNC(=O)C2)cc1S(=O)(=O)Nc1ccc(Br)cc1 | -1.4 | 3 | 12 | 1.6 | 1.1 | 0.2 | -2 | i | 0.71 | ·
Cc1c(NC(=O)/C(C#N)=C/c2ccc(-c3cc(Cl)ccc3Cl)o2)c(=O)n(-c2ccccc2)n1C | 1.6 | · | · | · | · | -1.2 | 6 | · | 0.74 | 22
Cc1ccc(C(=O)NCC(=O)OCc2cccc(Br)c2)cc1 | 4.4 | -22 | -20 | -3.6 | -2.1 | 1.3 | 0 | i | 0.68 | -1
Cc1ccc(OCCOC(=O)CCc2nc3ccccc3c(=O)[nH]2)cc1 | 5.7 | 21 | 14 | 0.6 | -0.2 | 1.4 | · | i | 0.69 | -7
CCN(C(=O)CSc1nc2ccccc2o1)c1c(N)n(Cc2ccccc2)c(=O)[nH]c1=O | 0.8 | -1 | -7 | 1.8 | -1.0 | 0.1 | 4 | i | 0.62 | 2
O=C1[C@@H](Oc2ccccc2)[C@@H](c2cccnc2)N1c1ccccc1 | 0.0 | 1 | 0 | -1.5 | 0.4 | · | · | i | 0.73 | ·
COc1ccc(CNC(=O)C2CCCN(S(=O)(=O)c3ccc(Br)s3)C2)cc1 (centres undefined) | 3.3 | 8 | 15 | -2.0 | 1.9 | 0.6 | 15 | i | 0.63 | 13
Cn1c(CN2CCCC2)nc2cc(NC(=O)COc3ccc([N+](=O)[O-])cc3)ccc21 | 4.1 | · | · | · | · | -0.8 | -6 | · | 0.68 | 3
COc1ccc(-c2nnc(NC(=O)c3c(OC)cccc3OC)s2)cc1 | 4.7 | 7 | 3 | -0.4 | 3.6 | 0.9 | · | i | 0.69 | 6
Cc1cc(C)cc(NC(=O)CSc2nncn2-c2ccccn2)c1 | -2.1 | 7 | 8 | 0.4 | 0.1 | 1.0 | 0 | i | 0.69 | 8
COc1ccc(CNC(=O)C[C@H]2C[C@H](C(=O)N3CCOCC3)[C@@]3(CCC4CCCC4)c4[nH]c5cc(CCC(=O)N(C)C)ccc5c4CCN3C2=O)cc1OC | 4.1 | -4 | -7 | -3.0 | 1.4 | · | · | i | 0.73 | ·
Cc1nc(SCC(=O)N2CCN(C(=O)c3ccco3)CC2)c2c(C)c(C)sc2n1 | 5.9 | · | · | · | · | 0.0 | -2 | · | 0.71 | 6
O=C(CN1C(=O)/C(=C\c2ccc(F)cc2)Oc2ccccc21)N1CCN(c2ccccn2)CC1 | i | 14 | 12 | 3.7 | 5.3 | 2.2 | -2 | i | 0.7 | -5
O=C1NCCCC1C(=O)N/N=C/c1cccc(Cl)c1 (centres undefined) | · | -4 | 7 | 0.3 | 0.5 | 2.3 | · | i | · | 4
O=C(C[n+]1ccccc1)N1c2ccccc2Sc2ccccc21 | 0.6 | 11 | 11 | -1.0 | 8.3 | 0.6 | 3 | i | 0.68 | 44
Cc1ccc(-c2noc(CN(C(=O)CCN3C(=O)c4ccccc4C3=O)C(C)C)n2)cc1 | 1.3 | · | · | · | · | 0.1 | -6 | · | 0.74 | 14
O=C(CSc1ccc(-c2cccs2)nn1)Nc1ccccc1F | 0.4 | -6 | -2 | 4.9 | -1.8 | -0.2 | -5 | i | 0.7 | 0
CCN(CC)C(=O)Cn1cnc([N+](=O)[O-])n1 | 0.1 | 0 | 5 | -3.6 | -4.0 | 0.8 | -6 | i | 0.61 | 53
CCc1ccc(C(C)NC(=O)c2ncn[nH]2)cc1 (centres undefined) | 5.4 | · | · | · | · | 0.7 | 9 | · | 0.72 | -14
Cc1ccc(C(=O)ON=C2CCN(c3ccc([N+](=O)[O-])cc3)CC2)cc1 | 4.8 | · | · | · | · | 0.5 | 10 | · | 0.65 | -25
CC(=O)N1CCc2c(sc(NC(=O)c3ccc4c(c3)OCCO4)c2C#N)C1 | -44 | 7 | 11 | 8.2 | -4.0 | -0.6 | 7 | i | 0.77 | -43
O=C(CC1C(=O)NCCN1Cc1cccc(Oc2ccccc2)c1)NCC1CCOCC1 (centres undefined) | -2.4 | 4 | -7 | 2.1 | 0.4 | 0.9 | -3 | i | 0.7 | 4
CC1=C/C(=N\NC(=S)NCCc2ccccc2)CC(C)(C)C1 | · | -29 | -33 | 6.4 | 6.1 | 0.1 | 3 | i | · | 19
CCCCCC(=O)Nc1cccc(C2=NOC3(C2)C[C@H](C(N)=O)N(C(=O)c2ccccc2C(=O)c2ccccc2)C3)c1 (some centres undefined) | 2.8 | -3 | -9 | 24 | 8.3 | 0.3 | -1 | i | · | 45
Cc1ccc(NC(=S)Nc2cc(-c3ccccc3)[nH]n2)cc1Cl | · | -20* | 5.5* | 1.0* | 1.9 | 0.0 | 11 | i | · | ·
C/C=C/c1ccc(OCC(=O)OCC(=O)NC2CC2)c(OC)c1 | 1.4 | 20 | 7 | 1.8 | -10 | · | · | i | 0.7 | ·
C[C@@H](c1ccccc1)N1C[C@H]2CCCN2c2cc(Br)ccc2S1(=O)=O | -1.7 | -3 | -4 | -7.7 | 0.0 | · | · | i | 0.72 | ·
COc1cc(NC(=O)Cn2cnc(S(=O)(=O)N3CCc4ccccc43)c2)cc(OC)c1OC | 6.2 | -8 | -7 | 1.5 | 2.0 | 0.4 | -4 | i | 0.65 | -10

Part of the list above with just Beta cell apopt, T cruzi inh and A1 inh:
SMILES	Beta cell apopt	T cruzi inh	A1 inh
Cn1c(=O)n(C)c2cc(S(=O)(=O)N3CCOCC3)ccc21	-12	3	-1.0
O=C(NCc1ccc(F)cc1)c1cnccn1	-2	-3	1.3
CCN1CCCC1CN(Cc1cc2cc(C)ccc2[nH]c1=O)C(=O)Nc1ccccc1OC (centres undefined)	-2	23	-0.4
